D2 PAM = Beta-Arrestin HTS for Positive Allosteric Modulators of the Human D2 Dopamine Receptor: Potentiators | potentiation, % (concentration not given with the values) | actives 0.23% (n = 360,000) | AID 624464, 2012 | DiscoveRx D2 beta-arrestin cells, luminescence, 90 min; 100% = 57 uM dopamine signal | D(2) dopamine receptor (Homo sapiens), P14416; active = potentiation of 50% or more; inconclusive = 30% to 50%; inactive = 30% or less;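 also: compound concentration not given in the record; tested on top of an EC20 dose of dopamine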
Target sequence (P14416 whole entry, looked up): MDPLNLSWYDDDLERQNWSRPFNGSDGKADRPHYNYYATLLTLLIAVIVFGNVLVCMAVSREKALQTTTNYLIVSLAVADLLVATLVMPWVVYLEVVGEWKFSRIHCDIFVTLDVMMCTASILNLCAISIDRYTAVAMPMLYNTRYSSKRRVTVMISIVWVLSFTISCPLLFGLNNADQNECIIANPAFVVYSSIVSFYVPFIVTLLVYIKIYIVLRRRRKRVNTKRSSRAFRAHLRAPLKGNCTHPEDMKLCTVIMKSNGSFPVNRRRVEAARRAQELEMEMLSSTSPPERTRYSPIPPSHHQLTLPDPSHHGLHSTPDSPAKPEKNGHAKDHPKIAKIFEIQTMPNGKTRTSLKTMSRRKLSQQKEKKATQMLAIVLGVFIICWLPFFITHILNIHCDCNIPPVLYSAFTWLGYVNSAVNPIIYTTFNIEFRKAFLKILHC
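PathHunter beta-arrestin assay in DiscoveRx D2 cells. Compounds were added with an EC20 of dopamine (50 nM final) for 90 min at 37 deg C. Luminescence was read 1 h after detection reagent, with 57 uM dopamine as the EC100 control.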
TRPML1 inh = qHTS for Inhibitors of the Human Mucolipin Transient Receptor Potential 1 (TRPML1) | TRPML1-inducible cells, Ca2+ dye fluorescence, FDSS; stronger effect = lower value; inhibition of EC80 agonist-evoked calcium signal | activity change, negative = inhibition, % (test concentration not listed) | actives 0.02% (n = 390,000) | AID 624415, 2012; in the data active means activity change below about -50%; inconclusive means about -30% to -50%; inactive means above about -30%;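 also: stimulus is agonist 54-4 at its EC80 concentration; % is scaled to controls: 0 for no effect and ±100 for the full control effect; compound concentration not given in the record; the text of the record puts the active cut at -80%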
Target sequence (Q9GZU1 whole entry, looked up): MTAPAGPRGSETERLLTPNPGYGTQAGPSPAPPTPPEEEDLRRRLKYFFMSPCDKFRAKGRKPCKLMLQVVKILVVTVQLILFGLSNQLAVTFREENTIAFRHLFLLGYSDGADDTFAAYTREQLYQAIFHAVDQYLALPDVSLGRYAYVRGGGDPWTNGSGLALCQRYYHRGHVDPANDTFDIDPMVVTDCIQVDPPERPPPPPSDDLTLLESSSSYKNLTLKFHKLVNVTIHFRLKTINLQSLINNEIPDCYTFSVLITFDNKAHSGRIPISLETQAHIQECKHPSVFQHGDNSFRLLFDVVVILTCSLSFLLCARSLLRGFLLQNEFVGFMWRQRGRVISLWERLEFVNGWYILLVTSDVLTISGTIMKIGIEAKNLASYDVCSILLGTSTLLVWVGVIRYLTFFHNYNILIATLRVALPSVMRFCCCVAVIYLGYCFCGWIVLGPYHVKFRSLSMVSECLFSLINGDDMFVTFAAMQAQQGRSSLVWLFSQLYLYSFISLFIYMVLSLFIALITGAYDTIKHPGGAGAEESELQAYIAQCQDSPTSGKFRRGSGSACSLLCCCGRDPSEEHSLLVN
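Tet-induced TRPML1-DL cells loaded with Ca8 no-wash calcium dye were read kinetically on FDSS. Compound addition was followed by EC80 agonist 54-4 (4 uM final); inhibition was read over 110 s.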
Six1-Eya2 inh = qHTS Assay for Inhibitors of the Six1/Eya2 Interaction; AlphaScreen GST-Six1/His-Eya2 binding, biochemical; stronger effect = lower value; control for the full effect not named in the record; Homeobox protein SIX1 (Homo sapiens) + Protein phosphatase EYA2 (Homo sapiens), …; activity change, % (concentration not given with the values); actives 0.56% (n = 360,000); AID 651725, 2012; in the data active = activity change below about -65%; inconclusive = about -30% to -65%; inactive = above about -30%; also: % is scaled to controls: 0 for no effect and ±100 for the full control effect
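AlphaScreen luminescence read after one hour at 37 °C in darkness. Pin-transferred compounds met GST-Six1 and His-Eya2 protein (5X stock 250 nM/500 nM) plus glutathione donor and Ni-chelate acceptor beads (5X, 50 ug/mL).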
TRPML1 ag = qHTS for Agonists of the Human Mucolipin Transient Receptor Potential 1 (TRPML1). activation, % (no concentration beside the values). actives 0.12% (n = 410,000). Mucolipin-1 (Homo sapiens), Q9GZU1. TRPML1-expressing cells, Ca2+ dye fluorescence, FDSS; host cell line not named in the record; reference of the full effect not given here; in the data active = activation above about 50%; inconclusive = about 30% to 50%; inactive = below about 30%; also: 0% is about no effect; the text of the record puts the active cut at 80%
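Tet-induced TRPML1-DL cells, 1,500 per well, cultured overnight, were loaded with a no-wash Ca2+ dye for 45–90 min. Calcium fluorescence was recorded on the FDSS for 110 s after compound addition, before the EC80 agonist (4 uM 54-4) was added.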
PINK1 expr mod = A Quantitative High throughput Screen to Identify Chemical Modulators of PINK1 Expression; PINK1 immunofluorescence, high-content cytometry, 24 h; Potency, µM (top dose mostly 76.6 µM), for the others: at the highest dose activation (PINK1 increase), hits mostly activators; actives 0.2% (n = 410,000); active = well fitted activation curve with a large enough effect; inconclusive = small, poorly fitted or top-dose-only effect; inactive = flat fitted curve, though single readings scatter; cell line not stated here;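 also: potency is read from the fitted curve at half-maximal effect; % of control where 0% means no effect; nearly all actives have a fitted effect of over 65% in size; a mitochondrial uncoupler was the plate control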
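PINK1 protein level read as immunofluorescence by microplate cytometer in a fixed, stained stable cell line after 24 h exposure to five compound concentrations, with CCCP as control.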
D2 ag = Beta-Arrestin HTS for Positive Allosteric Modulators of the Human D2 Dopamine Receptor: Agonists; D(2) dopamine receptor (Homo sapiens), P14416; DiscoveRx PathHunter D2 beta-arrestin, luminescence, 90 min; 100% = 57 uM dopamine signal; activation, % (concentration not given with the values); actives 0.084% (n = 360,000); in the data active = activation above about 40%; inconclusive = about 15% to 40%; inactive = below about 15%; also: compound concentration not given in the record; the text of the record calls up to 30% inactive
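DiscoveRx PathHunter D2 beta-arrestin cells (2,100/well) attached overnight, then compound-stimulated 90 min at 37 C in HBSS/10 mM HEPES/0.1% Tween-20 buffer; beta-galactosidase complementation read by luminescence after 1 h at ambient temperature. Dopamine 57 uM final (EC100) as control.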
The depositor's hits bear a star; nt = not tested or not shown; [ ] = dose if it differs, or a comment.

SMILES	D2 PAM	TRPML1 inh	Six1-Eya2 inh	TRPML1 ag	PINK1 expr mod	D2 ag
CC1CC(C)CN(CCOc2ccc(Cl)cc2Cl)C1 (stereo unspecified)	-18	-10	12	-0.6	1.7%	-2.3
CN(Cc1nc2ccccc2c(=O)[nH]1)CC(O)COCc1ccco1 (stereo unspecified)	-9	-3	-2	0.4	-0.4%	-2.0
O=C(CCNS(=O)(=O)c1cccc(C(F)(F)F)c1)NC1CC1	0	9	-1	-0.5	0.0%	-0.6
COc1ccc(Nc2nc3cc(-c4sccc4C)sc3c(=O)n2C)cc1OC	-15	5	-7	-0.3	5.6%	-2.7
CC(=O)NC1C(=O)N=C(SCC(=O)Nc2cccc(Cl)c2)NC1=O (stereo unspecified)	-7	-10	1	-0.3	2.4%	-5.2
O=C(Cc1cccs1)NCCc1ccc(F)cc1	-14	5	-4	0.2	0.7%	-0.4
Cc1ccc(C(NC(=O)N2CCCCC2)=C(Cl)Cl)cc1F	-2	-8	11	0.9	3.2%	1.4
Cc1nc2ccccc2c(=O)n1Cc1ccco1	-14	-10	-2	-0.9	3.6%	-5.0
CCOC(=O)c1cnc2c(ccc3ccccc32)c1NCCO	-16	11	-1	0.1	-0.7%	-2.4
CN(C)C(=O)CC12CC3CC(C1)CC(CC(=O)N(C)C)(C3)C2	-2	15	13	1.0	0.8%	12
O=C(N/C(=C/c1cccc([N+](=O)[O-])c1)C(=O)N1CCOCC1)c1ccc(Br)cc1	-2	39	23	0.0	4.2%	0.5
NS(=O)(=O)c1ccc(NC(=S)NC(=O)/C=C/c2ccco2)cc1	-22	3	-13	1.2	8.9%	-3.4
CCCCC(=O)Nc1nc(C)c(-c2csc(Nc3ccc(Cl)cc3)n2)s1	-8	21	-4	-0.4	1.4%	-2.0
Cc1cccc(C)c1N1CCN(c2cc(Cl)nc(N)n2)CC1	-3	3	3	1.3	2.8%	-4.3
CCOC(=O)c1c(NC(C)=O)sc2c1CCCNC2=O	1	-4	-3	0.2	-3.6%	1.8
CC1CCCCN1C(=O)COC(=O)c1n[nH]c2ccccc12 (stereo unspecified)	-14	-7	4	-0.2	-1.8%	-1.0
CCOCCn1c(SCc2cccc(C)c2)nc2c1c(=O)[nH]c(=O)n2C	2	-8	-7	-0.3	3.0%	-0.6
Cc1c(C#N)c2ccccc2n1CC(=O)NC(C)c1ccccc1 (stereo unspecified)	-5	-15	5	1.2	2.4%[38.3 µM]	0.2
CN(C(=O)C1CCN(S(=O)(=O)c2ccccc2[N+](=O)[O-])CC1)C1CCCCC1	-3	5	-7	0.0	-0.6%	3.5
O=S(=O)(c1ccc(Br)cc1)c1nc(-c2ccco2)oc1NCC1CCCO1 (stereo unspecified)	-22	11	0	-1.1	-0.2%	-4.8
COc1ccc(/C=N/NC(=O)CCn2c3ccccc3c3ccccc32)cc1OC	1	12	-4	-0.3	13%	1.7
c1ccc(CSc2ncnc3sccc23)cc1	0	-9	28	1.6	0.7%	-1.5
Cn1c(C(=O)NCc2ccco2)cc2c(=O)[nH]c3ccccc3c21	6	5	-25	1.1	1.7%	1.9
COc1ccc(NC(=O)/C=C\C(=O)N(c2ccc(C(C)C)cc2)C(C(=O)NCc2ccco2)c2ccc(F)cc2)cc1 (stereo unspecified)	nt	17	nt	0.3	-0.6%	nt
Cc1ccc(NS(=O)(=O)c2ccc(Cl)s2)nc1	-18	-23	8	0.1	2.5%	2.2

Some of the entries above in another layout:
SMILES | D2 PAM | TRPML1 inh | Six1-Eya2 inh | TRPML1 ag | PINK1 expr mod | D2 ag
O=C(CCNS(=O)(=O)c1cccc(C(F)(F)F)c1)NC1CC1 | 0 | 9 | -1 | -0.5 | 0.0% | -0.6
COc1ccc(Nc2nc3cc(-c4sccc4C)sc3c(=O)n2C)cc1OC | -15 | 5 | -7 | -0.3 | 5.6% | -2.7
CC(=O)NC1C(=O)N=C(SCC(=O)Nc2cccc(Cl)c2)NC1=O (stereo unspecified) | -7 | -10 | 1 | -0.3 | 2.4% | -5.2
O=C(Cc1cccs1)NCCc1ccc(F)cc1 | -14 | 5 | -4 | 0.2 | 0.7% | -0.4
Cc1ccc(C(NC(=O)N2CCCCC2)=C(Cl)Cl)cc1F | -2 | -8 | 11 | 0.9 | 3.2% | 1.4
Cc1nc2ccccc2c(=O)n1Cc1ccco1 | -14 | -10 | -2 | -0.9 | 3.6% | -5.0

An excerpt from above in order of their number in Six1-Eya2 inh, low to high.
mol	D2 PAM	TRPML1 inh	Six1-Eya2 inh	PINK1 expr mod	D2 ag
NS(=O)(=O)c1ccc(NC(=S)NC(=O)/C=C/c2ccco2)cc1	-22	3	-13	8.9%	-3.4
O=S(=O)(c1ccc(Br)cc1)c1nc(-c2ccco2)oc1NCC1CCCO1 (stereo unspecified)	-22	11	0	-0.2%	-4.8
Cc1ccc(NS(=O)(=O)c2ccc(Cl)s2)nc1	-18	-23	8	2.5%	2.2

Other compounds:
SMILES	D2 PAM	TRPML1 inh	Six1-Eya2 inh	TRPML1 ag	PINK1 expr mod	D2 ag
Cc1c(Cc2ccccc2)c(=O)oc2cc(O)ccc12	0	nt	-1	nt	0.5%	0.8
COc1ccc(CN2CCNC(=O)C2CC(=O)N(Cc2nccn2C)C(C)C)c(OC)c1 (stereo unspecified)	-15	-12	3	-0.5	-1.8%	-0.5
CC/C(Cc1ccccc1)=N\NC(=O)c1cc(C)oc1C	-11	1	-4	2.1	1.4%	-0.8
COc1ccc2[nH]c(=O)c(CN(C(=O)c3cccnc3)c3ccccc3C)cc2c1	0	-13	6	-0.8	3.8%	2.6
CSc1ccc(CN(C)C(=O)c2ccc(S(=O)(=O)Nc3ccccc3)cc2)cc1	-10	10	1	0.4	-3.0%	2.9
COc1cccc(C(=O)N(C)CC(=O)Nc2cccc3ccccc23)c1	-2	10	-5	0.0	-1.6%	-2.4
Cc1ccc(-n2nnnc2CNC(=O)c2ccc(F)cc2)cc1C	nt	-22	nt	0.1	0.0%	nt
O=C(NC1CCCCC1)C(c1c(F)cccc1Cl)N(C(=O)c1csnn1)C1CC1 (stereo unspecified)	-4	-6	8	0.8	-2.6%	-2.1
COc1ccc(Nc2cc(C)nc(N)n2)cc1	-2	-12	-4	-0.4	5.2%	0.5
Cn1nnc2c(N3CCN(c4cccc(C(F)(F)F)c4)CC3)ncnc21	nt	-13	nt	0.1	6.0%	nt
CC(Sc1ccccc1)C(=O)NN=C1CCCC1 (stereo unspecified)	-9	-2	1	-0.3	1.5%	-2.2
CCOC(=O)CN1N=C(/C=C/c2ccc(C(C)C)cc2)CCC1=O	3	8	8	1.4	-2.0%	6.2
CCOC(=O)C1(Cc2cccc(OC)c2)CCCN(C(=O)c2ccccc2C)C1 (stereo unspecified)	-1	15	11	1.4	-1.2%	1.4
Cc1cc(C)nc(N/N=C/c2cccc(Cl)c2)n1	-12	14	7	0.0	2.0%	-0.4
COc1ccc(NC(=O)COC(=O)c2ccc(-n3cnnn3)cc2)c([N+](=O)[O-])c1	-1	-7	-3	0.8	4.5%	-0.1
O=C(NCc1ccccc1)c1cnc(Cl)c(Cl)c1	-10	-4	-1	-0.5	1.8%	-5.3
Cc1ccc(-n2cc(CNC(C)Cn3cncn3)c(-c3ccc(F)cc3)n2)cc1 (stereo unspecified)	0	9	1	0.1	-0.6%	0.8
COc1ccc(C(C)=O)cc1COc1cccc2c1OC(C)(C)C2	-24	2	-4	0.4	-0.3%	-2.2
Nc1ncnc2c1ncn2[C@@H]1O[C@H](C(=O)NCCc2ccc(F)cc2)[C@@H](O)[C@H]1O	0	-10	-9	-0.2	4.6%	-3.9
CC(=O)N1CCc2c(sc3c2c(=O)n(-c2cc(Cl)ccc2C)c(=O)n3C)C1	nt	8	nt	0.9	-1.3%	nt
O=C(/C=C/c1cccc(Br)c1)N1CCN(c2ccccn2)CC1	-30	2	-4	0.2	-0.8%	1.7
Cc1ccccc1/C=N/n1c(-c2ccccn2)n[nH]c1=S	-8	8	-90*	0.1	1.0%	-0.1
O=C(c1ccc(NS(=O)(=O)c2ccc(F)cc2)cc1)N1CCCCC1	6	14	7	-0.2	-1.2%	-3.6
CCCCC(CC)CNC(=O)C(Cc1ccccc1)NS(=O)(=O)c1ccc2c(c1)CCC(=O)N2 (stereo unspecified)	2	5	2	1.7	3.3%	0.4
COc1ccc(C(=O)COC(=O)CCn2nnc(-c3cccc(O)c3OC)n2)cc1	-11	6	-1	-0.4	nt	-1.8

(list continues)
SMILES	D2 PAM	TRPML1 inh	Six1-Eya2 inh	TRPML1 ag	PINK1 expr mod	D2 ag
COc1cc(-c2noc(CCC(=O)NC3CCCCC3)n2)cc(OC)c1OC	0	4	2	0.4	0.2%	0.9
Cc1ccc(OCC(=O)Oc2ccccc2[N+](=O)[O-])cc1	1	-22	16	0.9	1.4%	1.0
O=C(NCC1CCCO1)c1ccc(Oc2ccc([N+](=O)[O-])cc2)cc1 (stereo unspecified)	-6	-3	6	0.5	0.4%	2.4
COCCNc1nc2c(c(=O)n(C)c(=O)n2C)n1Cc1c(F)cccc1Cl	nt	17	nt	-1.1	0.1%	nt
OC(c1ccc(F)c(F)c1)c1nc(-c2cccc(C(F)(F)F)c2)cs1 (stereo unspecified)	-5	nt	23	0.3	13%	5.1
Cc1cc(=O)[nH]c(SCC(=O)N2CCC(Cc3ccccc3)CC2)n1	-8	-22	12	-0.3	2.7%	-2.1
C=Cc1cnc([N+](=O)[O-])n1C	0	-11	5	0.0	0.7%	3.0
N#CCCN(CCC#N)C(=S)NC1CC2C=CC1C2 (stereo unspecified)	-10	8	10	-0.9	0.3%	-3.0
Cc1ccc2c(c1)-c1c(cnn1CC(=O)O)CO2	-6	28	0	0.1	-0.9%	-2.4
COC(=O)c1scc(S(C)(=O)=O)c1-n1cccc1	-3	-6	-4	0.5	1.4%	-1.3
COc1ccc(C2CC(c3cccs3)=NN2C(=O)CSc2nncs2)cc1OC (stereo unspecified)	0	-19	13	0.8	-0.5%	-0.3
COc1ccc(NC(=O)c2oc3ccc(S(=O)(=O)N4CCCCC4)cc3c2C)cc1	nt	39	nt	0.4	2.1%	nt
Cc1cc(C)n(-c2nc(NCC(C)O)c3c4c(sc3n2)COC(C)(C)C4)n1 (stereo unspecified)	-1	-12	-4	0.8	12%[38.3 µM]	-3.8
COc1ccccc1CNC(=O)c1ccc(N2CCCC2)c(NC(=O)NCc2ccc(F)cc2)c1	nt	3	nt	0.0	5.2%	nt

Quoted from the listing.
Cc1cc(=O)[nH]c(SCC(=O)N2CCC(Cc3ccccc3)CC2)n1 in PINK1 expr mod: 2.7%
COc1ccc(C2CC(c3cccs3)=NN2C(=O)CSc2nncs2)cc1OC (stereo unspecified) in Six1-Eya2 inh: 13
